Screens deposited in PubChem by several laboratories.
PKD1 inh – inhibitors of human PKD1 kinase. PKD1 kinase fluorescence polarization assay. inhibition, %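 (about 10 µM by stock and volumes)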. 200,000 tested, 0.056% active. AID 797;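 active = inhibition of 50% or more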;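 note: controls were vehicle for no effect and a reference inhibitor for full effect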
Insulin prom inh – TRM-6 insulin promoter activity inhibition | TRM-6 cells (human fetal islet line), insulin promoter-eGFP reporter, imaging; reporter expression induced with tamoxifen | inhibition, % at 2 µM | 130,000 tested, 0.9% active | AID 1273;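 active = inhibition above the mean plus 3 SD, with well images judged a real hit on visual review, cut at about 60% in these data, passing the limit was not always enough; inconclusive = inhibition over the cutoff but images rejected on review; inactive = inhibition not above the cutoff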
GALR2 ag – agonists of human galanin receptor 2 (GALR2). 140,000 tested, 0.48% active. activation, %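 (tested at 5 µM)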. GALR2-expressing cells, agonist activation read-out. AID 803. O43603;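 active = above mean plus 3 SD of all compounds, about 5% in these data, not always enough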;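 note: 0% = vehicle buffer wells and 100% = reference agonist at full effect; tested in CHO reporter cells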
Target sequence (O43603 whole entry, looked up): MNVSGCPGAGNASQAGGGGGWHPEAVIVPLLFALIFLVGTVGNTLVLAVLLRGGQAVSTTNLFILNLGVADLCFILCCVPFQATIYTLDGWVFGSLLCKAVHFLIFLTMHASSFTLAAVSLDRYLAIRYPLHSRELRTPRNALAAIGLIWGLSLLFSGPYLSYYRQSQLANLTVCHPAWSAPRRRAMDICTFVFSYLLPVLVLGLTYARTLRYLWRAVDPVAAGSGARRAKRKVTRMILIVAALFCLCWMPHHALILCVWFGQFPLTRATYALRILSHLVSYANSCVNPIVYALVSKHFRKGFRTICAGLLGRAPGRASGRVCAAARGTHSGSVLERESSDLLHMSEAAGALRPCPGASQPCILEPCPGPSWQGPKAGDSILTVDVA
RGS16-Gao – modulates binding between human RGS16 and Galphao. bead-based flow cytometry RGS16-Galphao binding, fluorescence; actives lie on both sides. binding response (% of control), % at 10 µM. 220,000 tested, 0.38% active;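 active = below 25% or above 175%, edge rows of some plates excepted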;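 note: Galphao activated by GDP with aluminum fluoride before binding; 100% = wells without compound and 0% = beads without RGS; some results beyond the cut were filed as inactive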
Target sequence (O15492 whole entry, looked up): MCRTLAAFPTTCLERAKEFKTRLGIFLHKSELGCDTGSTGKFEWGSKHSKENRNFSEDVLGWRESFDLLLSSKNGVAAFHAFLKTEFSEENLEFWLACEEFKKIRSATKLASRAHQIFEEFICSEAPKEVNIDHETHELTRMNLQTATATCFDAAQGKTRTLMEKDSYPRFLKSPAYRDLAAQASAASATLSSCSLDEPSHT
Target sequence (P09471 whole entry, looked up): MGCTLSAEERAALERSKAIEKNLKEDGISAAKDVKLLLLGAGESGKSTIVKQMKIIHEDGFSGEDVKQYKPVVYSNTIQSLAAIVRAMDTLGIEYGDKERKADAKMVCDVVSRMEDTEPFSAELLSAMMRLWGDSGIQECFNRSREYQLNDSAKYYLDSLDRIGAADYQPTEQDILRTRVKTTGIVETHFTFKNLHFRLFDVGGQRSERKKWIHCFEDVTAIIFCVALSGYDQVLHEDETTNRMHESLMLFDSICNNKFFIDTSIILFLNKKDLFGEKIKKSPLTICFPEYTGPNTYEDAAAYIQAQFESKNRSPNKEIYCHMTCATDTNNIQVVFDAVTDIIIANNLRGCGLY
HSV augment – increases HSV replication in cells; 220,000 tested, 0.005% active; maximum fold increase; AID 1956; HSV replication augmentation in cells, fold increase;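 active = peak rise of 1.5-fold or more in the series; inconclusive = self-fluorescent or not available for retest; tested in PC3 cells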;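 note: first round at 10 µM; read as green reporter fluorescence; hits show the peak of a series up to 25 µM; 1 = signal of infected wells without compound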
Insulin prom inh cell count – also measured in Insulin prom inh; calls as there; normalized cell count, %; measured here: cell count, toxicity; reference of the scale not given here;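 cells exposed to compound for 48 h; stained nuclei by imaging scaled within each plate; lower means fewer cells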
HSV augment primary fold – further read-out of HSV augment, marked with its call; fold increase; compound at 10 µM; measured here: primary screen fold increase 10 uM; tested in PC3 cells;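 GFP signal in the first replicate; 1 = infected wells without compound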
Active calls of the source: *; i = inactive; u = inconclusive; x = not tested or not shown.

canonical_smiles	PKD1 inh	Insulin prom inh	Insulin prom inh cell count	GALR2 ag	RGS16-Gao	HSV augment	HSV augment primary fold
COc1ccc(C2=NN(C3=NN=C(N)Cc4ncnn43)C(O)(C(F)(F)F)C2)cc1 (centres undefined)	-11	x	x	x	106	i	0.95
CCOC(=O)CCn1nc(-c2ccc(C)cc2)c2ccccc2c1=O	4	-13	91	x	116	i	0.99
O=C(O)c1ccccc1C(=O)N(Cc1ccccc1)Cc1ccccc1	-5	29	117	1.4	101	i	1
CC(=O)Nc1ccc(S(=O)(=O)N2CCN(S(=O)(=O)N3CCCCC3)CC2)cc1	0	x	x	x	97	i	0.93
Cc1nc2ccccn2c1C(=O)Nc1ccc2c(c1)OCCO2	-4	60	133	-2.6	99	i	0.96
COc1cccc(NC(=S)N2CCN(c3ccc([N+](=O)[O-])cc3)CC2)c1	-2	36	80	x	103	i	1
Cc1ccccc1CCN(CC(=O)NC1CCCCC1)C(=O)c1csnn1	1	x	x	x	101	i	0.85
CCC(=O)Nc1nc(OC)cc(OC)n1	-3	-44	132	0.9	100	i	1
CC1CCN(S(=O)(=O)c2ccc(NC(=O)Cn3nnc(-c4ccccc4F)n3)cc2)CC1	-4	6	101	-0.1	106	i	0.89
COC(=O)C(O)(CC(=O)c1ccc(OC)cc1)C(F)(F)F (centres undefined)	-15	-6	110	-1.7	95	i	0.88
CCn1c(CNc2ccc(C)cc2)nnc1SCC(=O)NCc1ccccc1	-9	-110	114	-1.3	101	i	0.69
CCN(CC)c1ccc(C(=O)NN)cc1	3	50	113	x	100	i	0.99
O=C(CN1C(=O)NC2(CCCc3ccccc32)C1=O)N1CCc2ccccc2C1 (centres undefined)	-5	21	114	-0.8	94	i	0.86
CCn1c(=S)sc2c(=O)n(-c3ccccc3)c(=S)[nH]c21	-7	x	x	x	101	i	0.98
CCCCn1c(SCC(=O)N(C)C2CCS(=O)(=O)C2)nc2cc(S(N)(=O)=O)ccc21 (centres undefined)	x	x	x	x	103	i	0.91
CCN(CC)CCNc1ccnc2cc(Cl)ccc12	-5	-64	90	-1.8	103	i	0.94

Continued; it opens with the 5 that closed the last part.
canonical_smiles	PKD1 inh	Insulin prom inh	Insulin prom inh cell count	GALR2 ag	RGS16-Gao	HSV augment	HSV augment primary fold
CCN(CC)c1ccc(C(=O)NN)cc1	3	50	113	x	100	i	0.99
O=C(CN1C(=O)NC2(CCCc3ccccc32)C1=O)N1CCc2ccccc2C1 (centres undefined)	-5	21	114	-0.8	94	i	0.86
CCn1c(=S)sc2c(=O)n(-c3ccccc3)c(=S)[nH]c21	-7	x	x	x	101	i	0.98
CCCCn1c(SCC(=O)N(C)C2CCS(=O)(=O)C2)nc2cc(S(N)(=O)=O)ccc21 (centres undefined)	x	x	x	x	103	i	0.91
CCN(CC)CCNc1ccnc2cc(Cl)ccc12	-5	-64	90	-1.8	103	i	0.94
O=C(Nc1nnc(C2CC2)s1)c1cc([N+](=O)[O-])ccc1N1CCCCC1	14	38	118	-0.4	96	i	0.87
COc1ccc(C(=O)OCc2nc(N)nc(Nc3ccccc3C)n2)cc1OC	-4	x	x	x	105	i	0.87
CC(C)C(=O)Nc1ccc(C(=O)Nc2nnc(C(C)C)s2)cc1	-6	x	x	x	107	i	0.88
CC(C)(C)c1ccc(Oc2ccc(N)cc2)cc1	-7	-43	117	-1.3	102	i	0.81
COc1ccc(-n2c3c(cc(C(=O)N4CCC(C)CC4)c2=O)C(=O)CC(C)(C)C3)cc1	-14	x	x	-1.3	107	i	1.2
COc1ccc(NC(=S)Nc2cccc(S(=O)(=O)N3CCCCC3)c2)cc1	-2	-17	120	-0.2	104	i	0.86
Cc1cc(C)nc(/N=C2\NC(=O)CC(C(=O)O)N2c2ccc(Cl)cc2Cl)n1 (centres undefined)	-5	x	x	x	100	i	0.81
N#CC1=C(N)Oc2n[nH]c(-c3cccs3)c2C1C1C=CCCC1 (centres undefined)	-3	21	78	1.3	98	i	0.96
CCCCC/C(=N\NC(=O)Nc1ccccc1)c1ccccc1	0	-50	63	x	110	i	1
N[C@@H](Cc1ccc(O)cc1)c1nnc([C@H](CC(=O)O)NC(=O)C2CCNCC2)o1	-3	x	x	x	99	i	0.98
O=C(Nc1ccc(S(=O)(=O)N2CCC(C(=O)NC3CCCCC3)CC2)cc1)c1ccco1	-1	x	x	-0.3	101	i	0.88
CCC(Oc1cc(Cl)ccc1Cl)C(=O)NN1C(=O)C2C3CCC(C3=C(C)C)C2C1=O (centres undefined)	-3	7	72	-1.5	90	i	1.1
CCCOc1ccc(S(=O)(=O)NCc2ccc(OC)cc2)cc1	-8	x	x	-1.3	91	i	1
CC(C)C1Cc2c(sc(NC(=S)NC(=O)c3ccccc3)c2C#N)CO1 (centres undefined)	-5	26	108	-0.2	98	i	0.95
CC(C)(C)OC(=O)N1CCC[C@H]1c1nnc(SCc2c(F)cccc2Cl)o1	15	0	166	-2.4	97	i	0.97
Cc1cc(NC(=O)c2ccccc2)sc1C	-3	-16	126	-2.2	86	i	0.79
CCN(CC)c1ccc(-n2c(O)c(C=C3N=c4ccccc4=N3)sc2=S)cc1	5	18	94	0.1	111	i	0.94
O=C(N/N=C/c1ccc(Cl)s1)c1ccccc1[N+](=O)[O-]	x	x	x	x	105	i	0.86
CCCOc1cc(N(CC)CC)ccc1/C=C(/C#N)c1nc2ccc(C)cc2[nH]1	-1	x	x	-2.9	98	x	x
COc1ccc(CCNC(=O)C2CCN(S(=O)(=O)c3cnc[nH]3)CC2)cc1OC	-5	x	x	-0.3	104	i	0.87
COC(=O)c1ccc(OCC(O)CN2CCC(C)CC2)cc1 (centres undefined)	-8	x	x	-2.0	103	i	1.1
CCOC(=O)C1CCN(C(c2cc3c(C)ccc(C)c3[nH]c2=O)c2nnnn2C2CCCCC2)CC1 (centres undefined)	-3	18	169	-0.7	102	i	0.81
Cc1ccc(N2CC(C(=O)Nc3cc(C)ccc3F)CC2=O)cc1 (centres undefined)	-2	-26	146	-0.3	100	i	1.1
CC1=C(C(=O)Nc2ccccc2)C(c2ccncc2)C(C#N)=C(SCC(=O)NC(C)C)N1 (centres undefined)	4	x	x	-2.3	31	i	0.91
O=C(O)C1C2C=CC(C3CC23)C1C(=O)NCCc1ccccc1 (centres undefined)	2	68	130	-0.7	97	i	0.71
O=C(O)CCCCCN1C(=O)C(=O)/C(=C(/O)c2ccccc2)C1c1ccccc1 (centres undefined)	-10	-13	115	-3.1	104	i	1
CCOc1cc(N2CCOCC2)c(OCC)cc1NC(=O)c1oc2ccccc2c1C	-8	x	x	x	96	i	1.1
O=[N+]([O-])c1ccc(/C([O-])=C(/C(=S)Nc2ccccc2F)[n+]2ccccc2)cc1	-2	x	x	x	98	i	1
O=C(CCCN1C(=O)CCC1=O)Nc1ccccc1F	2	-179	108	-0.6	94	i	0.84
CCc1cc(C(=O)Nc2ccccc2)cs1	-6	-66	134	-0.7	100	i	0.86
CCOC(=O)c1c(NC(=O)CC2SC(N)=NC2=O)sc(C)c1C (centres undefined)	-2	-53	113	x	106	i	0.97
COc1ccc(-c2nnc3sc(COc4ccc(C)cc4)nn23)cc1	-8	x	x	-1.4	101	i	1
O=C(Nc1ccc2c(c1)OCO2)c1c(F)cccc1F	2	25	82	-2.0	103	i	0.95
CCCCCCn1c(=O)[nH]c2nc3cc(N)ccc3nc2c1=O	7	x	x	0.8	151	u	x
CCCCN1C(=S)NC[C@@H]1Cc1ccccc1	-1	x	x	x	103	i	1.1
C/C(CCC(=O)OC[C@H]1O[C@H](C#Cc2ccccc2)C=C[C@@H]1Oc1ccc(C)cc1)=N\O[C@@H](C)CN1CCCCc2nc(C)c(C)cc21	-5	-15	101	-0.2	111	x	x
Cc1cc(O)cc(O)c1C(=O)Cc1cscn1	0	13	104	-1.6	94	i	0.93
CCN1C(=O)/C(=C2/Sc3ccc(OC)cc3N2C)SC1=Nc1ccc(OC)cc1	-1	x	x	x	96	i	0.87
Cc1nnc(SCC2=C(C(=O)O)N3C(=O)C(NC(=O)Cn4nc(C)c(Cl)c4C)C3SC2)s1 (centres undefined)	-9	x	x	x	97	i	1.2
CCN(CC)C(=O)CSc1nc2ccc(NC(=O)CSc3nccn3C)cc2s1	3	-13	152	-0.7	65	i	0.87

As entered above:
HSV augment primary fold, `CCCCN1C(=S)NC[C@@H]1Cc1ccccc1` stands at 1.1
PKD1 inh, `CCN(CC)C(=O)CSc1nc2ccc(NC(=O)CSc3nccn3C)cc2s1` stands at 3
RGS16-Gao, `CCN1C(=O)/C(=C2/Sc3ccc(OC)cc3N2C)SC1=Nc1ccc(OC)cc1` stands at 96
Insulin prom inh cell count, `Cc1cc(O)cc(O)c1C(=O)Cc1cscn1` stands at 104
HSV augment primary fold, `O=C(Nc1ccc2c(c1)OCO2)c1c(F)cccc1F` stands at 0.95
PKD1 inh, `C/C(CCC(=O)OC[C@H]1O[C@H](C#Cc2ccccc2)C=C[C@@H]1Oc1ccc(C)cc1)=N\O[C@@H](C)CN1CCCCc2nc(C)c(C)cc21` stands at -5

More structures.
| Molecule | PKD1 inh | Insulin prom inh | Insulin prom inh cell count | GALR2 ag | RGS16-Gao | HSV augment | HSV augment primary fold |
| --- | --- | --- | --- | --- | --- | --- | --- |
| CC(=O)c1ccc(N2CCN(C(=O)C3CCC3)CC2)cc1 | 1 | 24 | 80 | -3.5 | 97 | i | 0.93 |
| O=c1c2ccccc2c(C=Nc2ccc(S(=O)(=O)N3CCCCC3)cc2)c(O)n1-c1ccc(Cl)cn1 | 10 | -13 | 134 | 0.8 | 102 | i | 0.91 |
| Cc1ccc(N2C(=O)C3C4C=CC(C4)C3C2=O)cc1C (centres undefined) | -3 | -20 | 100 | 0.7 | 97 | i | 0.93 |
| O=c1c2ccccc2nc(-c2ccc([N+](=O)[O-])cc2)n1O | -2 | x | x | x | 100 | i | 1 |
| COc1cc(C(=O)NCc2nnc(SCC(=O)Nc3cc(C)cc(C)c3)o2)cc(OC)c1OC | -2 | -26 | 93 | -5.5 | 101 | i | 0.94 |
| CCC1(CC)C(=O)N=C2c3ccccc3C(=O)N21 | -4 | 36 | 78 | -2.3 | 82 | i | 0.96 |
| CCCc1nnc(NC(=O)OCC)s1 | 1 | x | x | x | 111 | i | 0.95 |
| CCN(CC)C(=O)Oc1ccc2c(=O)c(-c3ccccc3)coc2c1 | -2 | 31 | 99 | -1.5 | 122 | i | 0.92 |
| Oc1ccc2n[nH]nc2c1 | 4 | -17 | 83 | -0.1 | 99 | i | 1 |
| CCN1C(=O)C2C(c3cccc(F)c3)NC(CC)(C(=O)OC)C2C1=O (centres undefined) | -8 | x | x | -0.1 | 102 | i | 1.1 |
| COc1cccc(NC(=O)N(CCCN2CCOCC2)C(C)c2cc3ccccc3o2)c1 (centres undefined) | 6 | 10 | 166 | -0.2 | 84 | i | 0.96 |
| O=C(N/N=C/c1ccc2c(c1)OCO2)c1ccc2ccccc2n1 | -7 | x | x | x | 103 | i | 0.9 |
| Cc1ncsc1CCOC(=O)c1cccnc1 | -10 | x | x | -1.5 | 103 | i | 0.9 |
| COc1cc(N2C(=O)C=CC2=O)c(OC)cc1Cl | x | x | x | x | 89 | i | 0.95 |
| CCOC(=O)Cn1nc(/C=C/c2ccccc2)ccc1=O | -1 | 36 | 139 | -4.5 | 97 | i | 0.82 |
| COc1ccc2c(C)nc(Nc3nc(C)cc(C)n3)nc2c1 | 9 | -158 | 146 | -1.5 | 99 | i | 0.9 |
| O=C(c1ccco1)N1CCN(C(=O)c2ccccc2Oc2ccccc2)CC1 | -5 | -288 | 28 | -2.0 | 101 | i | 0.87 |
| C/C(=N\NC(=O)c1c(Cl)c(C)nn1C)c1cccc(NC(=O)COc2ccc(Cl)cc2)c1 | -9 | 3 | 85 | 0.2 | 104 | i | 0.74 |
| COc1ccc([N+](=O)[O-])cc1NC(=O)c1cc(C)c(C)o1 | -4 | x | x | x | 96 | i | 0.97 |
| CC(C(=O)Nc1nc2ccccc2s1)n1cc([N+](=O)[O-])cn1 (centres undefined) | -3 | 33 | 104 | x | 108 | i | 1.1 |
